StopGo RLuc = Primary qHTS Assay for Foot and Mouth Disease Virus Antivirals against NCGC Sytravon and CBC Compound Libraries: Renilla Luciferase Signal. HEK cells with a luciferase reporter of 2A StopGo recoding. Potency, µM (top dose mostly 57.5 µM), for inactives: at the top dose signal change, negative = less light. 120,000 compounds, 0.32% hits; active means well fitted falling curve with a large enough effect; inconclusive means small, poorly fitted or top-dose-only effect; inactive means no such curve, though single readings can be large or run the other way; note: nearly all actives have a fitted effect of over 55% in size; overnight with compound
2A firefly = Primary qHTS Assay for Foot and Mouth Disease Virus Antivirals against NCGC Sytravon and CBC Compound Libraries: Firefly Luciferase Signal; HEK cells with a luciferase reporter of 2A StopGo recoding; Potency, µM (highest dose often 57.5 µM), for inactives: at the top dose signal change, negative = less light; 120,000 compounds, 0.23% hits; AID 1745856, 2022; active = well fitted falling curve with a large enough effect; inconclusive = small, poorly fitted or top-dose-only effect; inactive = no such curve, though single readings can be large or run the other way; note: nearly all actives have a fitted effect of over 60% in size; overnight with compound
* marks the source's active call; other numbers are inactive results; ? = inconclusive; & = joins results of further samples; [ ] = dose if it differs, or a comment. % is set by controls: 0 for no effect and ±100 for the full control effect; potency is the fitted concentration of half-maximal effect.

item	SMILES	StopGo RLuc	2A firefly
1	Cc1c(Cl)cccc1NC(=O)c1cnc2sc(N3CCOCC3)nn2c1=O	-6%	44%[activator]
2	CCC1(C)NC(=O)N(NC(=O)c2nn(C)c(=O)c3ccccc23)C1=O (stereo not given)	5%	10%
3	O=C(O)C(=Cc1cccs1)C(=O)O	2%	-5%
4	C(=Nc1ccccc1-c1ccccc1N=Cc1ccc2ccccc2c1)c1ccc2ccccc2c1	1%	0%
5	CC(Sc1nc(-c2cccs2)nc2ccccc12)C(=O)NCc1ccco1 (stereo not given)	-2%	0%
6	CC(OC(=O)c1ccc(CS(C)(=O)=O)cc1)c1ccc(F)cc1F (stereo not given)	5%	0%
7	O=C(C1COc2ccccc2O1)N(Cc1cccnc1)c1nc2c(Cl)cccc2s1 (stereo not given)	29%&-5%	31%&-10%[activator]
8	C[N+](C)(C)CCOC(=O)CCC(=O)OCC[N+](C)(C)C	-3%	-1%[11.5 µM]
9	CCCCN(C)C(=O)CCNC(=O)Cn1cnc2sc3c(c2c1=O)CCCC3	2%	30%[activator]
10	Cn1cc(S(=O)(=O)N2CCCC(C(=O)Nc3ccn(Cc4ccc(Cl)cc4)n3)C2)cn1 (stereo not given)	-32%	-27%
11	CCCCN(CC)CCNC(=O)c1cc2c(=O)n(CC)c3ccccc3c2s1	-11%	-23%
12	CC(=O)c1cccc(NC(=O)C2CC3CCCC(C2)C3=O)c1 (stereo not given)	9%	29%
13	CCC(=O)Nc1ccccc1-c1nc2ccccc2n(CC(=O)c2ccc(C)cc2)c1=O	20%	0%
14	Cc1cc(C(=O)OCC(=O)NC2CC2)c2ccccc2n1	-8%	0%
15	CC(=O)c1cccc(NC(=O)C2(c3ccc(Br)cc3)CCCC2)c1	-16%	-27%
16	CCN(Cc1ccc(C)cc1)Cc1cc(=O)oc2ccc(C)cc12	9%	17%
17	COc1ccc(-c2cc(NC(=O)c3ccc4c(c3)NC(=O)CCS4)ccc2OC)cc1	?	?
18	CC1(C)CC(=O)c2cc(C#N)c(=O)n(-c3ccc(Cl)cc3)c2C1	-8%	25%
19	Brc1cccc(-c2noc(Cc3ccccc3)n2)c1	21%	149%[activator]
20	CCOC(=O)c1ccc(NC(=O)c2ncn(-c3ccccc3)n2)cc1	9%	26%
21	O=C(NCC(O)COc1cccc(C(F)(F)F)c1)C1CCCC1 (stereo not given)	102%[activator]	31%[activator]
22	CSCCCNC(=S)NCc1ccccn1	11%	0%
23	CCCCCn1nc(C(=O)Nc2ccc(OC)c(Cl)c2)c2ccccc2c1=O	1%	19%
24	O=C(COc1ccccc1Cl)Nc1ccc2nc(SCC(=O)N3CCOCC3)sc2c1	-9%	-10%
25	COc1ccc(CC(=O)Nc2nc(-c3nc4ccccc4s3)cs2)cc1	11%	0%
26	Cc1ccccc1-c1noc(-c2cc(C(C)C)[nH]n2)n1	1%	108%[activator]
27	CCCCN(CCCC)C(=O)C1CC(=O)OC12CCOC(C)(C)C2 (stereo not given)	1%	-2%
28	CCc1cccc(C)c1NC(=O)NCC(O)c1ccccc1 (stereo not given)	-3%	-4%
29	COc1ccc(OC)c(CNC(=O)c2cc3c(s2)-c2c(C)cccc2OC3)c1	12%	23%
30	Cc1ccc2nc(CN3CCN(C(=O)Nc4ccc(C)c(F)c4)CC3)oc2c1	5%	64%[activator]

A few values from the list.
Entry of compound 26 in 2A firefly: 108%[activator]
Entry of compound 29 in StopGo RLuc: 12%
Entry of compound 25 in StopGo RLuc: 11%

(list continues)
item	SMILES	StopGo RLuc	2A firefly
31	CC(=O)N1CCCc2ccc(NC(=O)c3ccc(OC(C)C)cc3)cc21	-4%	?
32	COCCn1nc(C(=O)NCC(c2ccccc2)N2CCCC2)ccc1=O (stereo not given)	-4%	146%[activator]
33	CCc1ccccc1NC(=O)CCOc1ccccc1	11%	-16%
34	CN(C)S(=O)(=O)c1ccc(N2CCCCC2)c(C(=O)N2CCCc3ccccc32)c1	119%[activator]	1%
35	CCOC(=O)c1c(NC(=O)C(=O)NCc2ccncc2)sc2c1CC(C)(C)OC2	-20%	-24%
36	O=C(Cc1cccc2cccnc12)NCCc1ccccn1	8%	65%[activator]
37	Cc1ccc(NC(=O)Cn2c(=O)oc3cc(S(=O)(=O)N4CCCCCC4)ccc32)cc1Cl	-2%	-18%
38	Cc1cc(F)ccc1NC(=O)C1CCCN(S(=O)(=O)c2ccc3c(c2)CCCC(=O)N3)C1 (stereo not given)	13%	18%
39	COCCNC(=O)C1CCC(CNS(=O)(=O)c2ccc3c(c2)CC(C)N3C(C)=O)CC1 (stereo not given)	-10%	3%
40	Cc1cc2n(CC(O)COc3ccc(Cl)cc3)c(=O)c3ccccc3n2n1 (stereo not given)	4%	-5%
41	COc1cccc(CNC(=O)CCc2c(C)c3cc4c(C)c(C)oc4cc3oc2=O)c1	-18%	3%
42	CC(C)CNC(=O)CCCc1nnc2c(=O)n(-c3ccc(Cl)cc3)ccn12	5%	8%
43	CC(C)NC(=O)c1cccc2c1CCCN2CC(=O)NCCc1ccccc1	-3%	1%
44	CCc1ccc(-c2nc(C(=O)N3CCN(c4ccc(C(C)=O)cc4)CC3)cs2)cc1	-5%	69%[activator]
45	Cc1cc(C)cc(NC(=O)NCc2nc(-c3ccccc3)oc2C)c1	0%	2%
46	Cc1ccc(-n2nc3c(=O)n(CC(=O)Nc4ccccc4F)nc(C)c3c2C)c(C)c1	11%	18%
47	O=C(O)CP(=O)(O)O	-7%	-1%[11.5 µM]
48	CC(C)(C)N(Cc1cn(Cc2ccccc2)nn1)S(=O)(=O)c1ccc(N2CCCC2)cc1Br	77%[activator]	?
49	CCC1CN(C(=O)Nc2cccc(OC)c2)c2ccccc2O1 (stereo not given)	-6%	24%
50	O=C(CC1CCCC1)N1CCN(c2nc3ccccc3o2)CC1	?	?
51	Cc1cc(C(=O)COC(=O)Cn2cnc3c2c(=O)n(C)c(=O)n3C)c(C)n1C	-9%	-4%
52	O=C(O)C(Sc1ccccc1)c1ccccc1 (stereo not given)	14%	12%
53	O=C(Nc1cc(-c2cccc(Cl)c2)no1)c1noc2c1COc1ccccc1-2	-12%	0%
54	COc1ccc(Cn2c(C(=O)O)c(CNCCc3ccco3)c3ccc(OC)cc32)cc1	109%[activator]	-10%
55	O=C1CCSc2c1cccc2C(=O)NCC1CCN(Cc2ccc(F)cc2)CC1	-10%	-12%
56	OCCN(CCO)c1nc2sc3c(c2c2nc(-c4ccccc4)nn12)CCCC3	-2%	2%
57	CCC(C)NC(=O)CSc1nnc(-c2c[nH]c3ccccc23)o1 (stereo not given)	9%	42%[activator]
58	COc1ccc(OC)c(CCNC(=O)CCCc2nnc3n(C)c(=O)c4sccc4n23)c1	18%	8%
59	COc1ccc(Cl)cc1NC(=O)Cn1nnc2sc3c(c2c1=O)CCC(C(C)(C)C)C3 (stereo not given)	-12%	-15%
60	COc1ccc(N2CC(NC(=O)Cc3cccs3)CC2=O)cc1OC (stereo not given)	-16%	-11%
61	Cc1ccc(-c2ncc(Cl)cc2-c2ccc(S(C)(=O)=O)cc2)cn1	-5%	-15%[11.5 µM]
62	COc1ccccc1OC(C)C(=O)N1CCC(c2nc3ccccc3s2)CC1 (stereo not given)	?	?
63	CCOc1ccc(NC(=O)c2ccc3c(c2)CCN3S(=O)(=O)c2ccc(Cl)cc2)cc1	7%	-12%
64	Cc1nn(-c2ccccc2)c2nc(C3CC3)cc(C(=O)Nc3ccccc3F)c12	-4%	-8%
65	Cc1ccc(C(=O)N2c3ccc(C)cc3C(C)(c3ccccc3)CC2(C)C)cc1 (stereo not given)	19%	10%
66	O=C(CCSCc1ccccc1Cl)NCCc1ccccc1	-8%	2%
67	O=C(Nc1cnn(Cc2ccc(Cl)cc2Cl)c1)c1noc2c1CCc1ccccc1-2	-12%	18%
68	Cc1ccc(-c2nc(CN3C(=O)CN=C(c4ccccc4Cl)c4cc(Cl)ccc43)c(C)o2)cc1	3%	13%
69	CCOC(=O)N1CCc2c(sc(NCc3cccs3)c2C(=O)Nc2cc(OC)ccc2OC)C1	124%[activator]	-8%
70	O=C(Cn1c(=O)n(C2=CCCCC2)c2ccccc21)NCc1nnc2n1CCCCC2	-14%	-8%

Down the list, from the results shown:
Nos. 63 to 67 in StopGo RLuc read 7%, -4%, 19%, -8%, -12%
Nos. 63 to 67 in 2A firefly read -12%, -8%, 10%, 2%, 18%

Record cards, as listed above. Values in the order: StopGo RLuc	2A firefly
Cc1ccc(-c2ncc(Cl)cc2-c2ccc(S(C)(=O)=O)cc2)cn1 is entered as -5%	-15%[11.5 µM]
Cc1nn(-c2ccccc2)c2nc(C3CC3)cc(C(=O)Nc3ccccc3F)c12 is entered as -4%	-8%

Additional results
item	SMILES	StopGo RLuc	2A firefly
71	CCN(CC)S(=O)(=O)c1ccc(NC(=O)c2noc3c2COc2ccc(C)cc2-3)cc1	38%[activator]	0%
72	S=c1[nH]ccc2ccccc12	13%	7%
73	O=C(NNC(=S)Nc1ccc(Cl)cc1Cl)c1ccc(Cl)c(Cl)c1	?	?
74	Cc1ccc(S(=O)(=O)NCCc2csc(-c3ccc(Cl)cc3)n2)cc1	59%[activator]	?
75	COc1ccc(Nc2ncnc3c2cnn3C)c(OC)c1	-12%	-6%
76	CCN(CC)S(=O)(=O)c1ccc2c(c1)nc(SCC(=O)Nc1ccc(F)cc1)n2CC	29%	0%
77	CN(Cc1ccc(Cl)cc1Cl)c1ccc(S(N)(=O)=O)cn1	1%	-1%
78	Cc1cc(C)c2oc(C(=O)N(Cc3ccc(Cl)cc3)C3CCS(=O)(=O)C3)cc(=O)c2c1 (stereo not given)	4%	6%
79	CCOC(=O)c1cnn(-c2ccc(C(=O)Nc3cc(OC)c(OC)c(OC)c3)cc2)c1N	-5%	66%[activator]
80	N=C(N)c1cc(N)cc(C(=N)N)c1	1%	17%
81	CCc1nn2c(=O)cc(CN(CC)C3CCCCC3)nc2s1	-4%	-6%
82	Cc1nn(C(=O)c2ccc(Cl)cc2)c(C)c1Sc1ccc(Cl)cc1	-8%	-23%
83	CCCCOc1cccc(C(=O)N(Cc2ccc(N(C)C)cc2)C2CCS(=O)(=O)C2)c1 (stereo not given)	-4%	-18%
84	CCCC(C(=O)NCCC12CC3CC(CC(C3)C1)C2)c1ccccc1 (stereo not given)	10%	2%
85	c1cc2ccc(CNC3CC3)cc2[nH]1	-1%	13%
86	CSc1ccccc1C(=O)O	-2%	9%
87	Cc1ccc(COC(=O)c2nn(C)c(=O)c3ccccc23)cc1	2%	22%
88	CCOc1ccc(NC(=O)N2CCN(Cc3nc(-c4ccccc4C)oc3C)CC2)cc1	-20%	-17%
89	Cc1ccc(-c2nnc(Nc3ccc(OCC(N)=O)cc3)c3ccccc23)cc1S(=O)(=O)NCC1CCCO1 (stereo not given)	91%[activator]	14%
90	COc1ccc(-c2cc(C(=O)NCCc3ccccc3)c3c(-c4ccc(Cl)cc4)[nH]nc3n2)cc1	5%	22%
91	Cc1nc(-c2ccc(S(=O)(=O)N3CCN(c4cccc(C(F)(F)F)c4)CC3)cc2)co1	-10%&-8%	-13%&-2%
92	Cc1ccc(CNC(=O)c2c(C)[nH]c3ccccc23)cc1	-2%	34%[activator]
93	CSc1ccc(/C=C/C(=O)c2ccc(NC(=O)c3ccccc3Cl)cc2)cc1	73%[activator]	20%
94	N#Cc1cc([N+](=O)[O-])ccc1NC(=O)COC(=O)CC12CC3CC(CC(Br)(C3)C1)C2	-9%	5%
95	O=C(NCc1ccc(CN2CCOCC2)cc1)c1cnn(-c2ccccc2)c1	-4%	19%
96	COc1ccc(NC(=O)c2n[nH]c(=O)c3ccccc23)cc1OC1CCCC1	?	?
97	CCCC(C)(N)C(=O)O (stereo not given)	-2%	-4%
98	CC(=O)c1cccc(NC(=O)CN2C(=O)c3cccnc3Sc3ccccc32)c1	11%	91%[activator]
99	COCCn1cnc2c1c(=O)n(CC(=O)Nc1ccc3c(c1)OCO3)c(=O)n2Cc1ccccc1	-3%	-4%
100	Cc1ccc(F)cc1NC(=O)C1CCCCC1	1%	9%
101	Cc1cc(C)c(NC(=O)c2c(C)oc3c2C2=NCCN2C=N3)c(C)c1	-8%	-14%
102	CC(C)(C)C(=O)/C=c1/[nH]c(=O)/c(=C/c2ccc(O)c(Cl)c2)s1	168%[activator]	236%[activator]
103	Cc1ccc(N=C2NN=C(c3cc(C)n(CC4CCCO4)c3C)CS2)cc1 (stereo not given)	-22%	14%
104	O=C(OCc1ncc(-c2ccccc2)o1)c1ccc(O)cc1	-2%	76%[activator]
105	COc1ccc(NC(=O)CNC(=O)Cn2ccc3ccccc3c2=O)c(OC)c1	-9%	-17%
106	Cc1cc(C)cc(OCC(=O)Nc2ccc(Cl)c(-c3nc4ncccc4o3)c2)c1	14%	24%
107	Cc1ccc2cccc(NC(=O)c3ccc(OC(C)C)cc3)c2n1	-11%&7%	-3%&0%
108	Fc1ccc(-n2ncc3c(Nc4ccc(Oc5ccccc5)cc4)ncnc32)cc1	-4%	48%[activator]
109	COC(=O)c1ccc(NC(=O)C2CCN(C(=O)c3ccc(F)cc3)CC2)cc1	15%	9%
110	Nc1nccc(-c2ccc([N+](=O)[O-])cc2)n1	-6%	20%
111	COc1ccc(-c2coc3cc(O)ccc3c2=O)cc1	-7%	116%[activator]
112	CCOC(=O)C1C(=O)C=C(c2ccc(C)cc2)CC1c1ccccc1C (stereo not given)	25%	1%
113	O=S(=O)(NCCc1csc2nc(-c3ccc(Cl)cc3)nn12)c1ccc(Oc2ccccc2)cc1	-2%	-25%

Screening data from PubChem.
